Assay outcomes (PubChem)
KB-3-1 cytotox = KB-3-1 parental cell cytotoxicity | KB-3-1 viability, CellTiter-Glo ATP luminescence, 72 h | Potency, µM (doses to about 46.1 µM), for the others: top-dose activity change, negative = cytotoxic, hits mostly cytotoxic | 1.4% of 400,000 active; note: % is set by controls: 0 for no effect and ±100 for the full control effect; nearly all actives have a fitted effect of over 60% in size
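Screening of KB-3-1 cells (DMEM, 10% FBS, phenol-red free) ran from lowest to highest compound concentration; after 72 h at 37 °C viability was read luminescently and curves fitted.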
KB-V1 MDR tox = KB-V1 MDR subline cytotoxicity; AID 1347076; Potency, µM (series often up to 46.1 µM), for inactives: at the top dose activity change, negative = cytotoxicity, most hits filed as cytotoxic; 3.4% of 400,000 active; KB-V1 MDR cells viability, CellTiter-Glo, 72 h; note: % is set by controls: 0 for no effect and ±100 for the full control effect; nearly all actives have a fitted effect of over 60% in size
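KB-V1 cells (P-gp-expressing MDR subline of KB-3-1) in phenol-red-free DMEM with 10% FBS were exposed to library compounds over a concentration series for 72 h at 37 degrees C. Viability read by CellTiter-Glo luminescence; concentration-effect curves fitted after normalization.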
ATXN2 expr inh = ATXN2 expression inhibition. Potency, µM (doses to about 57 µM), inactives show top-dose activity change, negative = inhibition, usual class: inhibitors. 0.72% of 360,000 active. HEK-293 ATXN2-luciferase reporter, luminescence, 24 h. AID 1745845; note: % is set by controls: 0 for no effect and ±100 for the full control effect; nearly all actives have a fitted effect of over 55% in size
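ATXN2-luciferase reporter cells (luciferase flanked by upstream and downstream ATXN2 gene portions) were treated 24 h at 37 °C with compounds at up to 57 uM. SteadyGlo luminescence gave expression; GF-AFC fluorescence gave viability.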
SW480 rerep = DNA re-replication induction in SW480 cells. SW480 DNA re-replication, Hoechst DNA content imaging, 48 h. Potency, µM (top dose mostly 46.1 µM), without a hit: top-dose re-replication activation, usual class: activators. 1.8% of 340,000 active. AID 624297; note: % of control where 0% means no effect; nearly all actives have a fitted effect of over 55% in size
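Image-based read-out: total Hoechst fluorescence of nuclei (405 nm excitation, 500-530 nm emission), with hits raising the fraction of high-intensity nuclei. SW480 colon cells incubated 48 hr with compounds at 37 C.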
MCF10A rerep = inducers of DNA re-replication in MCF 10A breast cells; 2.9% of 350,000 active; Potency, µM (highest dose often 46.1 µM), inactives show at the top dose activity, positive = re-replication, most hits filed as activators; MCF 10A DNA re-replication, Hoechst nuclear intensity, 48 h; note: % of control where 0% means no effect; nearly all actives have a fitted effect of over 50% in size
* marks the source's active call; other numbers are inactive results; [ ] = remark or other dose. Calls come from the whole dose curve; as a rule, active = well fitted curve in the direction sought with a large enough effect; inconclusive = small, poorly fitted or top-dose-only effect, or another doubt; inactive = no such curve, though single readings can be large; an effect the other way counts as inactive or inconclusive. Potency is the fitted concentration of half-maximal effect.

Results for O=C(COc1ccc(Br)cc1)N1CCN(Cc2ccncc2)CC1 ?
KB-3-1 cytotox: -4%; KB-V1 MDR tox: -3%; ATXN2 expr inh: -1%; SW480 rerep: -6%; MCF10A rerep: 7%

Results for CCC(C)(O)C(=O)OC1C(=O)OC2CC3C(C)=CC(=O)C(O)C3(C)C3C4(O)OCC23C1C(C)C4O (centres undefined) ?
KB-3-1 cytotox: 0.29µM*; KB-V1 MDR tox: 12µM*; ATXN2 expr inh: 0.17µM*; SW480 rerep: inconclusive; MCF10A rerep: inconclusive

What do the screens show for `CN1CCN(Cc2ccc(Br)s2)CC1`?
KB-3-1 cytotox: -2%; KB-V1 MDR tox: -1%; ATXN2 expr inh: 0%; SW480 rerep: -3%; MCF10A rerep: -7%

How did CN(C)CC1Oc2ccccc2OC1(O)c1ccccc1 (centres undefined) do in these assays?
KB-3-1 cytotox: inconclusive; KB-V1 MDR tox: inconclusive; ATXN2 expr inh: inconclusive; SW480 rerep: -88%[inhibitor]; MCF10A rerep: 2.6µM*

Results for O=c1c2ccccc2nc(/C=C/c2ccc(F)cc2)n1-c1ccccc1O ?
KB-3-1 cytotox: inconclusive; KB-V1 MDR tox: inconclusive; ATXN2 expr inh: -23%; SW480 rerep: inconclusive; MCF10A rerep: inconclusive

2 compounds picked at random from the list so far:
What do the screens show for `CN1CCN(Cc2ccc(Br)s2)CC1`?
KB-3-1 cytotox: -2%; KB-V1 MDR tox: -1%; ATXN2 expr inh: 0%; SW480 rerep: -3%; MCF10A rerep: -7%

Results for O=c1c2ccccc2nc(/C=C/c2ccc(F)cc2)n1-c1ccccc1O ?
KB-3-1 cytotox: inconclusive; KB-V1 MDR tox: inconclusive; ATXN2 expr inh: -23%; SW480 rerep: inconclusive; MCF10A rerep: inconclusive

A run of entries from further up, as a working copy:
How did CN(C)CC1Oc2ccccc2OC1(O)c1ccccc1 (centres undefined) do in these assays?
KB-3-1 cytotox: inconclusive; KB-V1 MDR tox: inconclusive; ATXN2 expr inh: inconclusive; SW480 rerep: -88%[inhibitor]; MCF10A rerep: 2.6µM*

Results for O=c1c2ccccc2nc(/C=C/c2ccc(F)cc2)n1-c1ccccc1O ?
KB-3-1 cytotox: inconclusive; KB-V1 MDR tox: inconclusive; ATXN2 expr inh: -23%; SW480 rerep: inconclusive; MCF10A rerep: inconclusive

These rows are one share of the data. The share of hits here may be higher or lower than overall.
